Screening results as filed in PubChem.
PMP22 txn: modulators of PMP22 gene transcription in S16 Schwann cells | AID 1508649 | Potency, µM (series often up to 57.5 µM), for the others: at the top dose activity change, negative = inhibition, most hits filed as inhibitors | 2% of 43,000 active | S16 Pmp22-F2sN Schwann cells (luciferase reporters placed in the Pmp22 gene), FLuc/NLuc coincidence luminescence, 24 h; active = clear falling dose curves in both reporters; inconclusive = both reporters move, but less clearly or upward; inactive = either reporter flat; the % is the NLuc reporter signal; also: % is scaled to controls: 0 for no effect and ±100 for the full control effect; some results filed as inactive show a strong effect at the top dose
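Luminescent read-out of sequential FLuc and NLuc signals from a reporter embedded in the Pmp22 3' UTR of S16 Schwann cells, taken after 24 h compound exposure at 37C; compounds reducing both signals score as inhibitors of expression.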
HTT prom inh: HTT promoter inhibition; HEK293 HTT promoter firefly luciferase reporter (activity 0% = vehicle and -100% = no light), 24 h; Potency, µM (top dose mostly 57.5 µM), without a hit: at the top dose activity change, negative = inhibition, usual class: inhibitors; 0.93% of 48,000 active; active = well fitted inhibition curve with a large enough effect; inconclusive = small, poorly fitted or top-dose-only effect; inactive = no such curve, though single readings can be large or run the other way; also: nearly all actives have a fitted effect of over 50% in size
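HEK293 luciferase promoter-reporter cells (2,500/well) plated 24 h, then compounds added at up to 57.5 uM final for 24 h at 37 °C. Firefly luminescence by Dual-Glo, normalized to vehicle (0%) and zero RLU (-100%).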
* = called active by the depositor; ? = inconclusive; . = no result given; & = joins results of further samples; [ ] = another dose, or the depositor's remark. Potency is read from the fitted curve at half-maximal effect. No enrichment for hits; overall some 2.7% were active at least once.

SMILES	PMP22 txn	HTT prom inh
CCc1ccc(NC(=O)c2cc(C)nn2-c2ccccc2)cc1	-7%	-18%
CC(CCc1ccc(O)cc1)NCCc1ccc(O)c(O)c1 (stereo unspecified)	.	6%&-6%
COCCNC(=O)c1cc2n(n1)CCCN(Cc1ccc(C)cc1)C2=O	-1%	-13%
COC(=O)c1ccc(NC(=O)CN(c2cccc(C(F)(F)F)c2)S(C)(=O)=O)cc1	-14%	-7%
CCc1cccc(N2C(=O)N(CC(=O)NCc3cccc(OC)c3OC)c3ccccc3S2(=O)=O)c1	-15%	?
CCOc1cc(C2c3c(oc4ccccc4c3=O)C(=O)N2c2ccccn2)ccc1O (stereo unspecified)	?	-13%
Cc1ccccc1OCC(=O)Nc1ccc(-c2nc3cc(Cl)cc(Cl)c3o2)cc1	-8%	-4%
CN(C)S(=O)(=O)N(CC(=O)Nc1ccc(Br)cc1F)c1ccccc1	0%	?
Cc1ccc(-c2noc(CN(C(=O)COc3cc(C)cc(C)c3C)C(C)C)n2)cc1	?	-19%
COc1ccc2c(c1)c(=O)c(C(=O)c1ccc(F)cc1)cn2CC(=O)Nc1ccc2c(c1)OCCO2	?	-23%
CC(C)(C)NC(=O)c1ccc2nc(CCc3ccccc3)oc2c1	-10%	20%
COc1ccccc1OCC(=O)NCC(c1ccc(Cl)cc1)N1CCCCC1 (stereo unspecified)	9%	-20%
CCc1nn(C(C)C(=O)N2CCN(c3ccccc3)CC2)c(=O)c2cc3occc3n12 (stereo unspecified)	?	-29%
CC(=O)SCC(CC(=O)c1ccc(C)cc1)C(=O)O (stereo unspecified)	.	12%
CCOc1ccc(NC(=O)c2cc3c(=O)n4cccc(C)c4nc3s2)cc1	-13%	11%
O=C(CN1C(=O)CCn2nc(-c3ccccc3)cc21)NCc1ccccc1	-9%	-8%
CC(C)c1ccc(NC(=O)C(C)N(c2ccccc2)S(C)(=O)=O)cc1 (stereo unspecified)	4%	?
CCOC(=O)c1ccccc1NC(=O)c1nn(-c2ccc(C)cc2)c(=O)n(C)c1=O	-3%	0%
CCOc1ccc(N2CC(C)Cn3c2nc2c3c(=O)n(CC(=O)O)c(=O)n2C)cc1 (stereo unspecified)	-13%	3%
Nc1c(-c2nc(-c3ccc(Cl)cc3)cs2)c2ccccn2c1C(=O)c1ccc2c(c1)OCO2	1%	?
CCCCc1ncc(/C=C(\Cc2cccs2)C(=O)O)n1Cc1ccc(C(=O)O)cc1	.	0%
O=C(NCC(c1cccnc1)N1CCc2ccccc21)c1ccccc1Br (stereo unspecified)	?	-30%
N#Cc1nc(-c2ccc(COc3ccccc3)o2)oc1NCc1ccccc1	-5%	?
Cc1cc(C)n2nc(CNC(=O)c3c(F)cccc3F)nc2n1	-2%	3%
COc1ccc(-n2nc3ccc(NC(=O)c4cccc(OCCC(C)C)c4)cc3n2)cc1	-6%	?
Cc1cc(C)cc(NC(=O)c2cc(S(=O)(=O)N3CCCCCC3)cn2C)c1	-6%	-9%
COc1ccc(OC)c(NC(=O)c2c(NCc3ccc(OC)c(OC)c3)sc3c2CCC(C)C3)c1 (stereo unspecified)	?	?
CCOc1ccc(-c2cc(C(=O)NCCCOC)c3c(-c4ccc(CC)cc4)[nH]nc3n2)cc1	?	-13%
Cc1cccc(NC(=O)N2CCC(CN3CCOCC3)CC2)c1C	-8%	3%
COc1cccc(/C=C/c2onc(C)c2S(=O)(=O)N2CCC(C(=O)N3CCC(C)CC3)CC2)c1	16%	-21%

Another view of some results above.
| canonical_smiles | PMP22 txn | HTT prom inh |
| --- | --- | --- |
| COc1ccc(-n2nc3ccc(NC(=O)c4cccc(OCCC(C)C)c4)cc3n2)cc1 | -6% | ? |
| Cc1cc(C)cc(NC(=O)c2cc(S(=O)(=O)N3CCCCCC3)cn2C)c1 | -6% | -9% |
| COc1ccc(OC)c(NC(=O)c2c(NCc3ccc(OC)c(OC)c3)sc3c2CCC(C)C3)c1 (stereo unspecified) | ? | ? |

(next part)
SMILES	PMP22 txn	HTT prom inh
COc1cccc(CNC(=O)CN2C(=O)CCCc3ccccc32)c1OC	1%	0%
COc1ccc(Nc2cc(C)c3cc(NC(=O)c4cc(OC)cc(OC)c4)ccc3n2)cc1	?	?
COc1ccc(C(=O)Nc2nnc(SCc3cc(=O)n4cccc(C)c4n3)s2)cc1	-14%	17%
COc1ccc(S(=O)(=O)NCCc2cc3ccc(C)c(C)c3[nH]c2=O)cc1	?	?
CCc1cc(C(=O)Nc2c(C)nn(Cc3ccc(C)cc3)c2C)no1	10%	?
c1ccc(OCCn2c(COc3ccccc3)nc3ccccc32)cc1	7%	-9%
COC(=O)C1=C(c2ccccc2)c2ccccc2S(=O)(=O)N1CC(=O)Nc1cccc(C(C)=O)c1	?	-36%
COc1cccc(N2CCN(S(=O)(=O)c3cc(Br)cc4c3N(C(=O)C3CC3)CC4)CC2)c1	?	20%
CSc1cccc(NC(=O)Nc2ccccc2OCc2cc(=O)n3cc(C)ccc3n2)c1	-8%	36%[activator]
Cc1ccc(CCNC(=O)CCc2cn(Cc3ccccc3C)c3ccccc23)cc1	3%	-23%

The list goes on; it opens with the two that closed the last part.
SMILES	PMP22 txn	HTT prom inh
CSc1cccc(NC(=O)Nc2ccccc2OCc2cc(=O)n3cc(C)ccc3n2)c1	-8%	36%[activator]
Cc1ccc(CCNC(=O)CCc2cn(Cc3ccccc3C)c3ccccc23)cc1	3%	-23%
CCc1nonc1NC(=O)c1oc2ccc(Cl)cc2c1C	0%	25%
COc1ccc(OCC(=O)NCCS(=O)(=O)N2CCN(c3cccc(Cl)c3)CC2)cc1	-9%	?
COc1ccccc1-c1noc(-c2ccc(NC(C)C)c([N+](=O)[O-])c2)n1	?	34%[activator]
O=C1CC(c2nnc(Cc3ccc(F)cc3)o2)CN1c1ccccc1 (stereo unspecified)	-12%	-11%
NC(N)=NCCN1CCCCCCC1	.	8%[0.739 µM]
CC(C)(C)c1ccc(S(=O)(=O)N2CCC(Oc3ccc(-n4cnnn4)cc3)CC2)cc1	-22%	1%
CC(C)(C)c1ccc(Oc2ccc(NC(=O)CCC(=O)OCC(=O)c3ccccc3)cc2)cc1	-1%	?
CCn1c(CC2C(=O)Nc3ccccc32)nc2ccccc2c1=O (stereo unspecified)	-10%	?
O=C(CSc1nnc(CNC(=O)c2cccc(F)c2)n1-c1ccccc1)Nc1ccccc1F	-3%	-14%
CCOc1ccc(-n2c(=O)c3c(C)c(C)sc3n(CC(=O)NCCc3ccccc3)c2=O)cc1	-2%	-7%
COc1cc2c(=O)n(CCC(=O)NCC3CCCO3)c(=O)n(CC(=O)Nc3ccc(C)cc3C)c2cc1OC (stereo unspecified)	9%	-8%
Cc1ccc(Cn2cc(CCC(=O)NCc3ccc(OC(C)C)cc3)c3ccccc32)cc1	0%	?
Cc1c(C(=O)NCc2ccccc2)oc2ccc(S(=O)(=O)N3CCC(C)CC3)cc12	-20%	?
C#Cc1ccc(-c2ccccc2F)cc1	.	-1%
Brc1cccc(-c2nnn3c2nc(N2CCCCC2)c2ccccc23)c1	-17%	-1%
COc1ccc(NC(=O)CSC2=Nc3ccccc3C3=NC(CCC(=O)NC4CCCCC4)C(=O)N23)cc1Cl (stereo unspecified)	-32%	-9%
CC1=C(c2ccc(C)c(C)c2)S(=O)(=O)N=C1N1CCC(C(=O)N2CCC(C)CC2)CC1	?	-14%
O=C(Nc1ccc(Br)cc1F)N1CC=C(c2c[nH]c3ccccc23)CC1	?	?
CCCCn1c(SCC(=O)Nc2cccc(OC)c2)nc2ccsc2c1=O	?	?
Cc1[nH]c2c(C)cccc2c1CCNC(=O)c1cc2ccccc2oc1=O	-9%	-2%

Reprinted from the part before: five entries, then new ones.
SMILES	PMP22 txn	HTT prom inh
COc1ccc(NC(=O)CSC2=Nc3ccccc3C3=NC(CCC(=O)NC4CCCCC4)C(=O)N23)cc1Cl (stereo unspecified)	-32%	-9%
CC1=C(c2ccc(C)c(C)c2)S(=O)(=O)N=C1N1CCC(C(=O)N2CCC(C)CC2)CC1	?	-14%
O=C(Nc1ccc(Br)cc1F)N1CC=C(c2c[nH]c3ccccc23)CC1	?	?
CCCCn1c(SCC(=O)Nc2cccc(OC)c2)nc2ccsc2c1=O	?	?
Cc1[nH]c2c(C)cccc2c1CCNC(=O)c1cc2ccccc2oc1=O	-9%	-2%
CCCCCCCCCCCCCCCC(=O)O[C@H]1[C@@H](O)[C@@H](O)[C@@H]([C@H](NC(=O)[C@@H]2C[C@@H](CCC)CN2C)[C@H](C)Cl)O[C@@H]1SC	.	-4%
Cc1ccccc1-c1nc(SCC(=O)NCc2ccc(F)cc2)c2c(=O)n(C)c(=O)n(C)c2n1	-5%	10%
Cc1ccc(-n2c(-c3ccco3)nc3c(cnn3-c3ccccc3C)c2=O)cc1	-17%	?
CC(C)CCNC(=O)C1CCN(S(=O)(=O)c2cccc3nsnc23)CC1	-39%	-5%
CCOc1cc(-c2nc(-c3ccc(Br)cc3)no2)cc(OCC)c1OCC	-7%	7%
CN1C(=O)Cc2cc(S(=O)(=O)CCC(=O)Nc3ccc(Cl)c(C(F)(F)F)c3)ccc21	-28%	-6%
Cc1ccc(CCNC(=O)c2ccc3c(c2)nc2n3CCOC2)cc1	-1%	21%
COc1ccc(-c2cc(C(F)(F)F)nc(SCCC(=O)Nc3cccc(OC)c3)n2)cc1	-19%	-21%
Cc1ccc2[nH]c3c(=O)n(CC(=O)N4CCN(c5cccc(C(F)(F)F)c5)CC4)ncc3c2c1	-5%	5%
Cc1[nH]c2ccc(Br)cc2c1CCNC(=O)c1cc2ccccc2oc1=O	?	-3%
CC(=O)Nc1nonc1-c1nnc(SCc2ccccc2F)n1C	-9%	-3%
COCCCNC(=O)CN1C(=O)c2c(c3ccccc3n2C)C1c1ccc(OC)cc1 (stereo unspecified)	-12%	-21%
Cc1ccc(-n2nc3c(=O)n(C(C)C(=O)O)nc(C)c3c2C)cc1 (stereo unspecified)	24%	-14%
CCOC(=O)c1ccc(CN(Cc2ccc(Cl)cc2Cl)S(=O)(=O)c2cccc(Cl)c2)cc1	?	?
CCn1c2ccccc2c2cc(CN3CCN(Cc4cc(OC)c(O)c(OC)c4)CC3)ccc21	?	-2%
COc1nc(-c2ccc(C)cc2)ccc1-c1noc(-c2ccc(C(C)(C)C)cc2)n1	20%	-11%
CCOc1ccccc1NC(=O)C1CCCN(S(=O)(=O)c2cccs2)C1 (stereo unspecified)	-20%	-20%
CCOC(=O)c1cnc2c(ccc3ccccc32)c1Nc1ccc(N(C)C)cc1	?	-24%
O=C(CCn1cccn1)Nc1ccc(Br)cc1F	?	25%
CCOc1ccccc1NC(=O)COc1ccc(S(=O)(=O)NC2CCCCC2)cc1	?	-20%
CCCCOCCOc1nc(-c2ccc(C(=O)O)c(F)c2)sc1C	.	8%
COC(=O)c1ccc2c(=O)n(CCCCCC(=O)N3CCN(c4ccc(OC)cc4)CC3)c(=O)[nH]c2c1	-11%	-7%
Cc1c(Cl)ccc2sc(N3CCN(C(=O)CS(=O)(=O)c4ccccc4)CC3)nc12	?	-9%
CCOC(=O)c1ccc(NC(=O)CSc2nc3ccccc3c(=O)n2CCC(=O)NC2CCCCC2)cc1	-25%	13%
COc1ccccc1CNC(=O)c1c(O)nc2c(C)cccn2c1=O	9%	6%
